Screening results from PubChem.
Yeast UUG start: alters start codon recognition fidelity in yeast. S. cerevisiae UUG-firefly luciferase reporter, luminescence/redox ratio. activity score, % at 18.7 µM. 350,000 compounds, 0.13% hits. AID 602363;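 active = replicate mean at a twofold rise or more, about +100% in these data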;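 note: firefly luciferase made from a UUG start codon reports start codon fidelity; reporter light over untreated wells divided by growth signal over untreated wells; some hits fall short of that in this replicate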
MT1-MMP act inh: MT1-MMP (human) activation inhibition; P50281; HT1080 RFP-PRO-GFP cells, GFP/RFP ratio fluorescence, overnight; percent of plate control window, DMSO zero; GFP/RFP ratio change, % at 20 µM; 360,000 compounds, 0.061% hits; AID 651647;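 active = GFP/RFP ratio change of at least 30% with cell ATP level not reduced by more than half and red fluorescence within 50% of control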; note: strong numbers were not always called active
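Assay system: RFP-PRO-GFP reporter HT1080 cells; read-out basis: GFP/RFP fluorescence ratio; benchmarks: DMSO wells and RFP-L50D-GFP cells; doses: 20 µM single dose, 1% DMSO; schedule: overnight cell settling, then overnight compound exposure, 37 °C, 5% CO2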
MT1-MMP act inh RFP: second read-out of MT1-MMP act inh, no call of its own (marks repeat the call); RFP signal change, %; measured here: RFP expression control read;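 0 = vehicle wells; hits needed this value within 50% of zero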
* = called active by the depositor. Not all compounds are listed. The share of hits here may be higher or lower than overall.

entry	Compound	Yeast UUG start	MT1-MMP act inh	MT1-MMP act inh RFP
1	CCN(CC)C(=O)C1=C(C)N(CCCOC)C(=O)C(CC(=O)NCc2ccco2)C1 (stereo unspecified)	10	-1	5
2	Cc1ccsc1C(=O)Nc1cc(Cl)ccc1-n1cncn1	-18	-7	8
3	COc1ccc(CCOC2OC(CO)C(OC(=O)/C=C/c3ccc(O)c(OC)c3)C(O[C@H]3O[C@@H](C)[C@H](O)[C@@H](O)[C@H]3O)C2O)cc1O (stereo partly specified)	-4	-3	-1
4	Nc1cc(S(=O)(=O)N2CCOCC2)ccc1Oc1cccc(Br)c1	-9	4	-26
5	O=S1(=O)C[C@@H](N2CCC[C@@H]2CO)[C@H](COCc2ccccc2)N1	-8	2	4
6	CC(=O)C1(O)C(C)CC2C3CC=C4CC(O)CCC4(C)C3CCC21C (stereo unspecified)	-13	-1	3
7	O=C1Nc2ccccc2N=C(c2ccc3c(c2)OCO3)C1N(CCc1ccccc1)C(=O)CSc1ncccn1 (stereo unspecified)	-11	1	-4
8	CCOc1ccccc1C(=O)NCC(=O)Nc1ccc2c(c1)OCO2	-2	-2	-4
9	CC1C(c2ccccc2)=Nn2c(=O)n(-c3ccccc3)c(=O)n21 (stereo unspecified)	-7	-1	-2
10	Cc1ccc(S(=O)(=O)N2CCN(C(=O)COC(=O)c3nc(Cl)ccc3Cl)CC2)c(C)c1	-4	-2	1
11	COc1ccc(Cn2cc(CN3CCOCC3)nn2)cc1	-12	6	11
12	CC(=O)Nc1cccc(C(=O)OCc2csc(CC(=O)Nc3ccccc3C)n2)c1	-4	3	3
13	COc1ccc(-c2cccc(CCC(=O)N3CCN(c4cc(C)ccc4C)CC3)c2)cc1	-17	-3	-15
14	CCOC(=O)c1cc(=O)nc(N)s1	-4	-1	0
15	CC1(C(=O)NS(=O)(=O)c2ccc(Cl)cc2)CCN1C(=O)Cc1ccccc1 (stereo unspecified)	-8	2	4
16	N#CCCN1CCN(S(=O)(=O)c2ccc(C3CCCCC3)cc2)CC1	-4	-2	-10
17	CNc1cncc(-c2ccc(CN3CCOCC3)cc2)n1	-6	0	-1
18	CC1(Cc2cc(Cl)ccc2C(F)(F)F)C(=O)Nc2ccc(OC(F)(F)F)cc21 (stereo unspecified)	-10	-11	-17
19	O=C1CC(N2CCN(S(=O)(=O)c3ccccc3F)CC2)C(=O)N1c1ccccc1Cl (stereo unspecified)	6	0	5
20	O=C(COC(=O)c1ccccc1F)NC(=O)NC1CCCC1	-1	3	3
21	Cc1ccc(C(=O)OCC(=O)Nc2ccccc2)cc1S(=O)(=O)N1CCCCC1	13	3	-2
22	CCCCCC#CCN1CCN(C23CC4CC(CC(C4)C2)C3)CC1	-5	-1	0
23	CN(CC(=O)Nc1ccc(OC(F)(F)F)cc1)C(=O)c1ccccc1SCC(=O)N1CCCC1	4	-1	-3
24	COc1ccc(CNC(=O)OC23CN(C(=O)OC(C)C)N(C(=O)OC(C)C)CC2(O)CN(S(=O)(=O)c2ccc(C)cc2)C3)cc1OC (stereo unspecified)	22	6	-3
25	CC1(C(=O)NS(=O)(=O)c2cccc(Cl)c2)CCN1C(=O)Cc1ccc(Cl)cc1Cl (stereo unspecified)	-1	-2	5
26	CN1CCN(C(=O)c2cc3c(c(-c4cccc(Br)c4)n2)[C@H](CCO)N(S(=O)C(C)(C)C)C3)CC1 (stereo partly specified)	-3	8	9
27	COc1ccc(S(=O)(=O)N2CCOCC2)cc1NC(=O)c1cc(C)oc1C	8	-7	-3
28	O=C(Nc1ccccc1)N1CCN(c2ccccc2)CC1	-25	-4	0
29	COc1ccc(NC(=O)C2COc3ccccc3O2)cc1S(=O)(=O)N1CCOCC1 (stereo unspecified)	-8	1	0
30	O=C1CN(S(=O)(=O)c2cc(C(F)(F)F)ccc2Cl)CCN1	2	14	1
31	Cc1ccc(C)c(NC(=O)C2(C)CCCN2C(=O)C(C)C)c1 (stereo unspecified)	-20	-3	5
32	N#CC1(NC(=O)COC(=O)C2CCN(S(=O)(=O)c3ccc4c(c3)OCCO4)CC2)CCCCC1	1	-1	3
33	N#CC1(NC(=O)CSc2nnc(C3CC3)n2N)CCCCC1	-5	-2	4
34	Cc1ccc(C)c(NC(=O)CSc2nc(C)cs2)c1	-13	-2	-2
35	CCCN(C(=O)COC(=O)c1nc2nccc(C)n2n1)C1CCS(=O)(=O)C1 (stereo unspecified)	3	-1	3
36	COc1ccc(CNC(=O)c2ccc(-n3cncn3)c3ccoc23)cc1OC	-5	1	-1
37	O=C(NCC(c1cccs1)N1CCOCC1)C1CCN(S(=O)(=O)c2cc(Cl)ccc2Cl)CC1 (stereo unspecified)	-17	1	0
38	Cc1ccc(S(=O)(=O)N2CCCCC2)cc1C(=O)N1CCN(CCO)CC1	-9	-2	1
39	CCOC(=O)CCCCCC(=O)Nc1ccc2c(c1)CC(=O)N([C@H](C)CO)C[C@@H](C)[C@H](CN(C)Cc1ccc3c(c1)OCO3)O2	-8	2	7
40	O=S(=O)(O)c1cc(O)c2cc(Nc3ccccc3)ccc2c1	6	-6	-1
41	O=C(CN1CCN(C(=O)CNC(=O)c2ccc3c(c2)OCO3)CC1)Nc1cccc(F)c1	-6	2	-4
42	CC(C)Nc1nnc(SC(C)C(=O)Nc2ccc(N3CCOCC3)cc2)s1 (stereo unspecified)	-12	-3	-2
43	Cc1cccc(NC(=O)CNC(=O)C(NC(=O)Cc2ccccc2)C(C)C)c1C (stereo unspecified)	-5	0	1
44	O=S1(=O)C=C[C@H](COCc2ccccc2)N1	-21	1	3
45	Cc1ccc(C2=N/C(=C\c3ccc(F)cc3)C(=O)N2)cc1	-3	6	-4
46	COc1ccc2nc(N3C(=O)C(O)=C(C(=O)c4ccco4)C3c3ccco3)sc2c1 (stereo unspecified)	-35	0	1
47	Cc1ccccc1C(=O)N1CCC(C(=O)N(CC(C)C)c2c(N)n(CC(C)C)c(=O)[nH]c2=O)CC1	-1	-1	1
48	Cc1ccc(S(=O)(=O)N2C[C@H]3C(=O)C[C@@H](c4ccccc4)N(S(=O)(=O)c4ccc(C)cc4)[C@H]3C[C@H]2c2cccc(C)c2)cc1	3	-7	-7
49	Cc1ccc(-c2noc(Cn3cc(S(=O)(=O)N4CCCC4)ccc3=O)n2)cc1	-10	-2	-2
50	CC(C)(C)S(=O)N1Cc2cc(=O)n(Cc3ccccc3)cc2[C@@H]1CCO (stereo partly specified)	-15	-2	5
51	CCc1ccc(C(O)c2ncc(-c3cccc(OC)c3)[nH]2)cc1 (stereo unspecified)	-6	0	-7
52	COc1ccc(C#Cc2cccc(-c3nc(C(=O)NCc4ccc(Oc5ccccc5)cc4)cc4c3[C@@H](CCO)N(S(=O)C(C)(C)C)C4)c2)cc1OC (stereo partly specified)	-3	7	6
53	Cc1cc(C(=O)NNC(C)Cc2ccccc2)no1 (stereo unspecified)	7	1	-2
54	O=C(NCC(=O)N1CCCCCCC1)c1ccco1	-16	-4	4
55	COc1cc(C(=O)NNC(=O)CN2C(=O)NC(C)(c3ccc(C)cc3)C2=O)cc(OC)c1OC (stereo unspecified)	6	0	1
56	O=C(CCNS(=O)(=O)c1cccs1)N1CCN(c2cccc(C(F)(F)F)c2)CC1	-2	-2	2
57	CC1CCc2c(ccc3ccccc23)C1=O (stereo unspecified)	-19	2	2
58	O=C(Nc1ccccc1)OCCN1CCOCC1	-15	1	5
59	Cc1ccc(-c2cnc(C(O)c3ccc(Cl)c(F)c3)[nH]2)cc1 (stereo unspecified)	-27	7	-3
60	COc1ccc(CNC(=O)C[C@H]2C[C@H](C(=O)N3CCOCC3)[C@@]3(C)c4[nH]c5cc(-c6ccco6)ccc5c4CCN3C2=O)cc1OC	-13	1	0

Given as labelled records: part of the list above
9	CC1C(c2ccccc2)=Nn2c(=O)n(-c3ccccc3)c(=O)n21 (stereo unspecified)
  Yeast UUG start = -7
  MT1-MMP act inh = -1
  MT1-MMP act inh RFP = -2
58	O=C(Nc1ccccc1)OCCN1CCOCC1
  Yeast UUG start = -15
  MT1-MMP act inh = 1
  MT1-MMP act inh RFP = 5
33	N#CC1(NC(=O)CSc2nnc(C3CC3)n2N)CCCCC1
  Yeast UUG start = -5
  MT1-MMP act inh = -2
  MT1-MMP act inh RFP = 4
12	CC(=O)Nc1cccc(C(=O)OCc2csc(CC(=O)Nc3ccccc3C)n2)c1
  Yeast UUG start = -4
  MT1-MMP act inh = 3
  MT1-MMP act inh RFP = 3

Later entries
entry	Compound	Yeast UUG start	MT1-MMP act inh	MT1-MMP act inh RFP
61	COc1ccc(NC(=O)c2ccc(S(=O)(=O)N3CCCC3)cc2)cc1OC	-4	-4	-3
62	CCC[C@H]1CN(c2ccc(OC)cc2)C(=O)[C@@H]1CC(=O)NC	22	3	5
63	CCN1C(=O)CC(c2ccccc2)N(C2CCCC2)c2nc(Nc3ccc(C(=O)NC4CCN(C)CC4)cc3OC)ncc21 (stereo unspecified)	1	9	-3
64	CC(Oc1ccc(F)cc1)C(=O)Nc1ccccc1C(=O)N1CCCCC1 (stereo unspecified)	6	-4	-2
65	Cc1cccc(CN2[C@H](COCc3ccccc3)C=CS2(=O)=O)c1	6	2	1
66	CCCCn1c(N)c(N(C)C(=O)c2ccc(-n3cccn3)cc2)c(=O)[nH]c1=O	-9	-3	1
67	COc1ccc(CC(=O)Nc2cc(S(=O)(=O)N3CCOCC3)ccc2N2CCOCC2)cc1OC	-1	-2	5
68	Cc1ccc(NC(=O)CCCc2nc3ccccc3c(=O)[nH]2)c(Cl)c1	-12	-4	1
69	COCCN(CCOC)Cc1cc(=O)oc2ccc3ccccc3c12	-5	0	5
70	N#Cc1ccccc1S(=O)(=O)N1CCN(C(=O)c2cccc(S(=O)(=O)N3CCCC3)c2)CC1	4	-2	1
71	CCN(C(=O)COc1cc(OC)ccc1C(C)=O)C1CCS(=O)(=O)C1 (stereo unspecified)	-18	2	2
72	N#Cc1ccc(C(=O)OCC(=O)Nc2cccnc2Cl)cc1	-6	-3	1
73	COCCn1c(C)cc(C(=O)COc2ccc(N(C)S(=O)(=O)c3ccc(C)cc3)cc2)c1C	-8	-2	-14
74	Cc1ccsc1C(=O)OCC(=O)NC1CCCC1	-15	2	7
75	Nc1c(C(=O)CSc2nccn2-c2ccc(Cl)cc2)c(=O)[nH]c(=O)n1C1CC1	-15	3	1
76	Cc1cn([C@H]2C[C@H](O)[C@@H](/C=C/C(=O)NCCc3cccnc3)O2)c(=O)[nH]c1=O	-24	1	5
77	Cc1nnc(-c2ccc(N3CCOCC3)c([N+](=O)[O-])c2)o1	-15	3	3
78	N#CC(c1ccccc1)C(CC(=NO)c1ccccc1)c1ccccc1 (stereo unspecified)	10	-4	-13
79	C[C@H](NC(=O)CC[C@H]1O[C@@H](n2ccc(=O)[nH]c2=O)[C@H](O)[C@@H]1O)c1cccc2ccccc12	-4	3	2
80	COc1ccc(CN2c3c(Br)cccc3C(=O)CS2(=O)=O)cc1	-12	12	4
81	O=C(CCNC(=O)c1ccccc1Cl)NCc1ccco1	17	1	1
82	Cc1ccccc1NC(=O)Cc1nc(COC(=O)Cc2ccccc2F)cs1	-7	4	4
83	CSCCC(NC(=O)c1ccco1)C(=O)NCC(c1ccccc1)N(C)C (stereo unspecified)	1	0	5
84	CCN1CCN(c2ccc(S(=O)(=O)N3CCCCC3)cc2NC(=O)CCNC(C)=O)CC1	-17	-2	4
85	NS(=O)(=O)c1ccc(CCNC(=O)COC(=O)COc2cccc(C(F)(F)F)c2)cc1	-16	0	1
86	CC(Sc1nnc(-c2cccnc2)n1N)C(=O)NCCC1=CCCCC1 (stereo unspecified)	-22	1	2
87	Cc1ccc(S(=O)(=O)N2CCCN(C(=O)c3ccc(-n4nccc4C)cc3)CC2)cc1	-1	6	-8
88	Cc1cccc(C(=O)NCCC(=O)NCc2ccccc2Cl)c1	-4	4	4
89	Cc1ccc(Cl)cc1NC(=O)COC(=O)c1ccc(CN2CCCC2=O)cc1	-28	25	-3
90	CCN(CC)S(=O)(=O)c1cc(NC(=O)c2ccccc2OCc2c(C)noc2C)ccc1C	9	4	-2
91	Cc1ccc(C(=O)C(C)OC(=O)CNS(=O)(=O)c2ccc(C)cc2)cc1 (stereo unspecified)	11	-5	5
92	O=C(COC(=O)c1cc(S(=O)(=O)N2CCOCC2)ccc1F)Nc1ccccc1C(F)(F)F	-16	3	4
93	CCCCCCCCNCCS(=O)(=O)NCCCCCCCC	-14	-5	-5
94	CCc1ccc(C#CC2=CC(=O)CC(C)(C)C2)cc1	-11	-10	-4
95	CC1CCC(NC(=O)COC(=O)c2ccc3ncsc3c2)CC1 (stereo unspecified)	-1	0	3
96	CC(=O)N1CCN(C(=O)c2c(-c3ccccc3)noc2C)CC1	-14	1	4
97	Cc1cccc(C(O)c2ncc(-c3ccc(F)cc3)[nH]2)c1C (stereo unspecified)	4	1	-2
98	Cc1ccc2nc(-c3ccc(C#N)cc3)c(Cc3cccc(Cl)c3)n2c1	-3	-7	-11

Ordered by length of the SMILES (ascending): part of the list above.
entry	Compound	Yeast UUG start	MT1-MMP act inh	MT1-MMP act inh RFP
17	CNc1cncc(-c2ccc(CN3CCOCC3)cc2)n1	-6	0	-1
90	CCN(CC)S(=O)(=O)c1cc(NC(=O)c2ccccc2OCc2c(C)noc2C)ccc1C	9	4	-2
24	COc1ccc(CNC(=O)OC23CN(C(=O)OC(C)C)N(C(=O)OC(C)C)CC2(O)CN(S(=O)(=O)c2ccc(C)cc2)C3)cc1OC (stereo unspecified)	22	6	-3
